# Assay outcomes (PubChem)
# rRNA inh HTS: inhibitors of bacterial rRNA selective over humanized ribosomes; 350,000 compounds, 1.6% hits; E. coli WT GFP vs humanized-ribosome RFP mutants, fluorescence, 24 h; active compounds read low; DMSO median 0, no signal -100; GFP signal change (wild-type ribosome), % (concentration not given with the values);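 active = significant combined selectivity score with lowered wild-type GFP, culture density cut under 30%, mutant RFP and density less affected; inactive = any of these conditions unmet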; also: one replicate is shown; some compounds called inactive have numbers as strong as hits
# rRNA inh HTS OD600: second read-out of rRNA inh HTS, no call of its own (marks repeat the call); OD600 change, %; measured here: OD600 growth;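 optical density of the mix in the first replicate; 0 = DMSO median and -100 = no signal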
# rRNA inh HTS RFP: second read-out of rRNA inh HTS, no call of its own (marks repeat the call); RFP signal change, %; measured here: RFP humanized mutant strains;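 first replicate; 0 = DMSO median and -100 = no signal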
# Starred values were filed as active, the others as inactive; & = joins results of further samples. This is a subset; rates above refer to the full screens.
SMILES,rRNA inh HTS,rRNA inh HTS OD600,rRNA inh HTS RFP
CO[C@@H]1CN(C)C(=O)c2cc(NS(=O)(=O)c3cn(C)cn3)ccc2OC[C@@H](C)N(Cc2cccc(F)c2)C[C@@H]1C,-2,-10,0.7
NC(=O)N/C=C1\CCCOC1=O,0,10,-1.1
C[C@@H]1CN([C@@H](C)CO)C(=O)c2cccc(NC(=O)c3ccc(-c4nccs4)cc3)c2O[C@@H]1CN(C)C(=O)Nc1ccccc1,-5,-7,1.0
CC(C)NC(=O)N(C)C[C@H]1Oc2ccc(NS(=O)(=O)c3ccc(F)cc3)cc2C(=O)N([C@@H](C)CO)C[C@@H]1C,5,8,0.2
C[C@@H]1CN([C@@H](C)CO)C(=O)Cc2cc(NS(=O)(=O)c3ccc(Cl)cc3)ccc2O[C@H]1CN(C)Cc1ccc(C(F)(F)F)cc1,4,8,-1.1
C[C@H](CO)N1C[C@H](C)[C@H](CN(C)C(=O)NC2CCCCC2)Oc2c(NC(=O)Nc3cccc4ccccc34)cccc2C1=O,-3,4,1.0
C/C=C/c1ccc([C@@H]2[C@H]3CN(S(=O)(=O)c4ccc(F)cc4)CCCCN3[C@H]2CO)cc1,9,-18,6.6
C[C@@H]1CN([C@H](C)CO)C(=O)Cc2cc(N(C)C)ccc2O[C@@H]1CN(C)Cc1ccc(Oc2ccccc2)cc1,-5,-44,17
COc1ccc(NC(=O)Nc2ccc3c(c2)C(=O)N([C@H](C)CO)C[C@@H](C)[C@@H](CN(C)C(=O)Nc2ccc(OC)cc2)O3)cc1,4,-5,0.4
O=[N+]([O-])c1ccc2c(c1)-c1ccccc1C2O (stereo unspecified),-3,8,-1.1
CCC(=O)N(C)C[C@@H]1Oc2ncc(C3=CCCC3)cc2C(=O)N([C@H](C)CO)C[C@@H]1C,3,6,-2.5
CC(C)NC(=O)Nc1ccc2c(c1)CC(=O)N([C@@H](C)CO)C[C@@H](C)[C@@H](CN(C)C(=O)Nc1ccccc1)O2,3,3,-0.3
C[C@@H]1CN([C@H](C)CO)C(=O)c2cc(NC(=O)Cc3ccccc3)ccc2O[C@H]1CN(C)C(=O)Nc1ccc2c(c1)OCO2,0,-6,-0.5
C[C@@H]1CN([C@@H](C)CO)C(=O)c2cc(NC(=O)C3CCCCC3)ccc2O[C@@H](C)CCCCO[C@@H]1CN(C)Cc1ccccc1,1,-5,6.7
CC(=O)NC[C@@H]1[C@@H](c2ccc(-c3cccnc3)cc2)[C@H](CO)N1C(=O)C1CCC1,-3,1,-1.9
CC(C)CC#Cc1ccc2c(c1)O[C@@H](CN(C)C(=O)c1ccncc1)[C@H](C)CN([C@H](C)CO)S2(=O)=O,-7,-14,0.5
O=C(c1ccccn1)N1CC(=O)N2[C@H](C1)[C@H](c1ccc(C#CCc3ccccc3)cc1)[C@@H]2CO,0,-1,0.6
Cc1noc(C)c1NC(=O)Nc1cccc2c1O[C@@H](CN(C)Cc1ccc(Oc3ccccc3)cc1)[C@@H](C)CN([C@@H](C)CO)C2=O,-4,-4,0.1
CC(=O)NCCNC(=O)C1Cc2c(-c3ccc(Cl)cc3)ccnc2O1 (stereo unspecified),0,-4,-14
CC(C)(C)[S@](=O)N1Cc2cc(C(=O)NCCc3ccncc3)nc(-c3cccc(-c4ccncc4)c3)c2[C@@H]1CCO,-5,-5,0.7
COc1cccc(-c2ccc3c(c2)O[C@H](CN(C)C(C)=O)[C@H](C)CN([C@@H](C)CO)S3(=O)=O)c1,-8,-4,0.0
COc1cccc(S(=O)(=O)N(C)C[C@H]2Oc3cc(C#CCN(C)C)ccc3S(=O)(=O)N([C@H](C)CO)C[C@H]2C)c1,2,1,2.5
CCC(=O)NC[C@H]1[C@@H](c2ccc(-c3ccccc3)cc2)[C@@H](CO)N1C(=O)C1CC1,-4,-2,-0.4
C[C@H](O)[C@@H]1C(=O)N2CCc3c([nH]c4c(-c5ccccc5)cccc34)[C@@H]2C[C@@H]1N(C)C(=O)Nc1cccc2ccccc12,-9,-40,-2.2
C[C@@H]1CCCCO[C@H](CN(C)S(=O)(=O)c2ccc(F)cc2)[C@H](C)CN([C@@H](C)CO)C(=O)c2cc(NC(=O)Nc3ccc4c(c3)OCO4)ccc2O1,0,0,-2.1

# Ordered by formula weight (lowest first): some entries from above
SMILES,rRNA inh HTS,rRNA inh HTS OD600,rRNA inh HTS RFP
CC(=O)NCCNC(=O)C1Cc2c(-c3ccc(Cl)cc3)ccnc2O1 (stereo unspecified),0,-4,-14
CCC(=O)N(C)C[C@@H]1Oc2ncc(C3=CCCC3)cc2C(=O)N([C@H](C)CO)C[C@@H]1C,3,6,-2.5
C[C@@H]1CN([C@H](C)CO)C(=O)Cc2cc(N(C)C)ccc2O[C@@H]1CN(C)Cc1ccc(Oc2ccccc2)cc1,-5,-44,17
C[C@H](O)[C@@H]1C(=O)N2CCc3c([nH]c4c(-c5ccccc5)cccc34)[C@@H]2C[C@@H]1N(C)C(=O)Nc1cccc2ccccc12,-9,-40,-2.2
C[C@@H]1CN([C@@H](C)CO)C(=O)c2cccc(NC(=O)c3ccc(-c4nccs4)cc3)c2O[C@@H]1CN(C)C(=O)Nc1ccccc1,-5,-7,1.0

# Remaining list, next part.
SMILES,rRNA inh HTS,rRNA inh HTS OD600,rRNA inh HTS RFP
CCCc1nc2c3ccccc3ccn2c1Cc1ccc(OC)cc1C,7,6,3.2
COCCNC(=O)C[C@H]1CC[C@@H](NS(=O)(=O)c2ccc(C)cc2)[C@H](CO)O1,0,6,5.1
CCCC(=O)N1CCC1(C)C(=O)NS(=O)(=O)c1ccc(Cl)cc1 (stereo unspecified),0,5,-1.6
COc1ccccc1S(=O)(=O)N1[C@@H]2CNC[C@H]1C2c1ccc(-c2ccccc2)cc1 (stereo partly specified),1&-3,9&4,6.5&7.8
CO[C@H]1CN(C)C(=O)c2ccc(NS(C)(=O)=O)cc2OC[C@H](C)NC[C@@H]1C,-1,-12,-2.2
C[C@@H]1CN([C@H](C)CO)C(=O)c2cc(NC(=O)Cc3cn(C)c4ccccc34)ccc2O[C@H]1CN(C)Cc1ccc2c(c1)OCO2,0,-1,9.3
C[C@@H]1CN([C@H](C)CO)C(=O)Cc2cc(NC(=O)CCC(F)(F)F)ccc2O[C@@H]1CN(C)CC1CCCCC1,2,5,-1.1
CN1C(=O)c2cc(NC(=O)c3cccc(F)c3)ccc2OC[C@@H]2O[C@H](CC(=O)Nc3ccccc3)CC[C@H]21,-2,-9,2.5
CCCC#Cc1ccc2c(c1)O[C@@H](CN(C)C(=O)CC1CC1)[C@H](C)CN([C@H](C)CO)S2(=O)=O,-8,-30,3.8
O=C(COC(=O)CSc1ccccc1)NC1CCS(=O)(=O)C1 (stereo unspecified),8,9,0.2
O=C(NCC[C@H]1CC[C@H](NC(=O)C2CC2)[C@H](CO)O1)c1cc(Cl)cc(Cl)c1,-3,-9,0.9
C[C@H](CO)N1C[C@H](C)[C@@H](CN(C)Cc2ccc(C(=O)O)cc2)Oc2ncc(-c3ccc(F)cc3)cc2C1=O,-3,15,2.4
O=C(Nc1ccccc1F)N[C@@H]1CC[C@H](CCNC(=O)C2CCC2)O[C@@H]1CO,-1,1,-1.5
CCCC#Cc1ccc2c(c1)[C@H]1[C@H](CCN1S(=O)(=O)c1ccc(F)cc1)[C@H](CO)N2C,-4,9,1.1
COc1ccc(C(=O)Nc2ccc3c(c2)C(=O)N(C)C[C@@H](OC)[C@@H](C)CN(C)[C@H](C)CO3)cc1,4,5,1.3
COc1ccc(S(=O)(=O)N(C)C[C@H]2OCc3ccccc3-c3ccccc3C(=O)N([C@H](C)CO)C[C@H]2C)cc1,1,1,-2.2
O=C(NCc1ccc(F)cc1)[C@H]1[C@H](CO)[C@H]2Cn3c(cccc3=O)[C@@H]1N2C(=O)C1CC1,3,2,-0.3
Cn1cnc(S(=O)(=O)N2C[C@H](O)COC[C@H]3O[C@H](CC(=O)NC4CCCC4)CC[C@@H]32)c1,-2,1,-2.3
O=C(NCc1ccccc1)[C@H]1CCCN1C(=O)[C@H]1CCCN1C(=O)c1ccc(F)c(F)c1,12,24,-2.7
COCC(=O)N(C)C[C@@H]1Oc2ncc(C#C[C@@H](C)O)cc2C(=O)N([C@H](C)CO)C[C@@H]1C,6,9,0.6
CO[C@H]1CC[C@@H]2CCOc3ccc(C#N)cc3C(=O)N(C)C[C@H](c3ccccc3)CC(=O)N(C)C[C@@H]1O2,1,5,-1.6
Cc1noc(C)c1-c1ccc(C(=O)NCCN2CCOCC2)c2occc12,5,1,-0.4
C/C=C/c1ccc([C@H]2[C@@H](CO)N(C(C)=O)[C@@H]2CN(CC)C(=O)CC2CC2)cc1,0,0,0.6
COc1ccc2c3c([nH]c2c1)[C@H](CO)N(C(=O)c1ccccc1)CC31CCN(C(=O)c2cccc(F)c2)CC1,-3,-10,-0.8
CCC(=O)N(C)C[C@H]1Oc2ncc(-c3ccccc3F)cc2C(=O)N([C@H](C)CO)C[C@@H]1C,2,4,-1.3

# By substructure: the entries above with an NH in an aromatic ring (2)
SMILES,rRNA inh HTS,rRNA inh HTS OD600,rRNA inh HTS RFP
C[C@H](O)[C@@H]1C(=O)N2CCc3c([nH]c4c(-c5ccccc5)cccc34)[C@@H]2C[C@@H]1N(C)C(=O)Nc1cccc2ccccc12,-9,-40,-2.2
COc1ccc2c3c([nH]c2c1)[C@H](CO)N(C(=O)c1ccccc1)CC31CCN(C(=O)c2cccc(F)c2)CC1,-3,-10,-0.8

# Further structures follow:
SMILES,rRNA inh HTS,rRNA inh HTS OD600,rRNA inh HTS RFP
COc1ccc(NC(=O)N(C)C[C@@H]2Oc3ccc(NC(=O)Nc4c(C)noc4C)cc3C(=O)N([C@@H](C)CO)C[C@@H]2C)cc1,-3,-3,-3.7
COc1ccccc1NC(=O)N1CCCCN2[C@@H](CO)[C@@H](c3ccc(-c4cccc(F)c4)cc3)[C@@H]2C1,-58,-74,-15
COC(=O)C1=C(C)N(Cc2ccccc2)C(=S)NC1c1ccc(Cl)cc1 (stereo unspecified),-9,-11,2.4
C[C@@H]1CN([C@H](C)CO)C(=O)c2cc(NC(=O)CCCN(C)C)ccc2O[C@@H]1CN(C)Cc1ccc(-c2ccccc2)cc1,5,1,3.9
COc1ccc2c3c([nH]c2c1)[C@H](CO)N(C(=O)CN(C)C)CC31CN(CC2CCOCC2)C1,6,16,-0.9
COC(=O)C[C@H]1CC[C@@H]2[C@H](COC[C@H](O)CN2C(=O)Nc2cccc(F)c2)O1,-30,-51,0.1
CO[C@@H]1CN(C)C(=O)c2cc(NS(=O)(=O)c3cn(C)cn3)ccc2OC[C@@H](C)NC[C@H]1C,0,6,-2.2
CCCC#Cc1ccc2c(c1)O[C@@H](CN(C)S(=O)(=O)c1cccc(F)c1)[C@@H](C)CN([C@H](C)CO)S2(=O)=O,3,4,-1.8
CC(=O)NC(c1ccccc1)c1nc(-c2cncnc2)cs1 (stereo unspecified),15,17,3.9
CCCCCCN(C(=O)CCCCCN1C(=O)NC(c2ccc(Cl)cc2)C(C(=O)OCc2ccccc2)=C1C)C(C(=O)NCCCC)c1ccc(OCC(=O)OC)c(C(=O)OC)c1 (stereo unspecified),11,3,0.9
COc1ccc(NC(=O)N(C)C[C@H]2Oc3ccc(NS(=O)(=O)c4ccc(Cl)cc4)cc3C(=O)N([C@@H](C)CO)C[C@H]2C)cc1,0,1,1.0
COc1ccc(S(=O)(=O)Nc2ccc3c(c2)C(=O)N([C@H](C)CO)C[C@H](C)[C@H](CN(C)S(=O)(=O)c2ccc(F)cc2)OCCCC[C@H](C)O3)cc1,3,5,-2.5
CCN(CC(=O)Nc1c(F)cccc1F)C(=O)CCCSc1nc2ccccc2[nH]1,-5,1,4.4
C[C@H](CO)N1C[C@H](C)[C@@H](CN(C)S(=O)(=O)Cc2ccccc2)OCc2ccccc2-c2c(n(C)c3ccccc23)C1=O,1,1,1.9
CC1=CC(=O)C=CC1=Nc1ccc(N(C)C)cc1,-4,22,44
O=C(C[C@H]1C=C[C@@H](NS(=O)(=O)c2ccccc2)[C@@H](CO)O1)N1CCN(c2ccccc2)CC1,-1,14,-0.9
COc1ccc(S(=O)(=O)Nc2ccc3c(c2)C(=O)N([C@H](C)CO)C[C@@H](C)[C@@H](CN(C)Cc2ccncc2)O3)cc1,1,0,-3.0
COc1ccc(S(=O)(=O)Nc2ccc3c(c2)C(=O)N([C@H](C)CO)C[C@@H](C)[C@@H](CN(C)Cc2ccc(C(=O)O)cc2)OCCCC[C@H](C)O3)cc1,2,-1,-3.3
COC(=O)N1Cc2ccnnc2CC1c1ccccc1-c1ccc(F)cc1 (stereo unspecified),2,6,2.8
COc1cccc(NC(=O)N(C)C[C@H]2Oc3ncc(C#Cc4ccc(F)cc4)cc3C(=O)N([C@H](C)CO)C[C@@H]2C)c1,3,-3,4.9
Cc1ccc(S(=O)(=O)Nc2ccc3c(c2)C(=O)N([C@@H](C)CO)C[C@H](C)[C@H](CN(C)C)OCCCC[C@H](C)O3)cc1,2,8,0.5
Cc1ccc(-c2ccc3c(c2)O[C@H](CN(C)C(=O)NC(C)C)[C@@H](C)CN([C@H](C)CO)S3(=O)=O)cc1,-4,-14,-2.5
C/C=C/c1ccc([C@H]2[C@@H](CO)N(C(=O)CN(C)C)C23CN(C(=O)C2CCOCC2)C3)cc1,-2,-16,0.3
C[C@@H]1CN([C@@H](C)CO)C(=O)c2cc(NC(=O)Nc3ccccc3)ccc2O[C@@H]1CN(C)C(=O)NC1CCCCC1,-3,-8,-0.4
C[C@@H]1CN([C@H](C)CO)C(=O)c2cc(C#CC3CC3)cnc2O[C@@H]1CN(C)C(=O)c1ccncc1,-5,-3,0.5
C[C@@H](O)C#Cc1ccc2c(c1)O[C@@H](CN(C)C(=O)Cc1ccccn1)[C@@H](C)CN([C@@H](C)CO)S2(=O)=O,4,10,0.6
